Screens: PubChem, Fisher Drug Discovery Resource Center
NPYLR7 agonist: mosquito NPYLR7 agonism | 270,000 tested, 0.15% active | activation, % at 10 µM | HEK293T NPYLR7/Galpha15, GCaMP6s calcium fluorescence; in the data active = activation above about 40%;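 also: 0% = vehicle and 100% = reference agonist at the receptor; some compounds past the cut are filed as inactive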
NPYLR7 agonist max-min: further read-out of NPYLR7 agonist, marked with its call; activation, %; measured here: Max-Min RFU normalised activation; some inactives read as strong as hits;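 span of the calcium signal over five minutes; 0% = vehicle and 100% = native peptide agonist; compound fluorescence can raise it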
Numbers without * were called inactive; & = joins results of further samples. This is a subset; the hit share may differ from the screen's.

Sample of the layout:
Value order – NPYLR7 agonist max-min | NPYLR7 agonist
1. COc1ccc(Cl)cc1-c1ccc2c(c1)COCC(=O)N2C(C)C
  6.6 | 10.9
2. O=S(=O)(c1ccc(F)cc1)N1CCN(c2cc(Cl)ccc2Cl)CC1
  -5.4 | -5.4
3. Cc1csc2nc(CSc3nc4sc5c(c4c(=O)n3C)CCC5)cc(=O)n12
  8.8 | 1.9
4. CCN(Cc1noc(C)n1)C(=O)CC1CCc2ccccc21 (stereo unspecified)
  -0.1 | 9.0
5. CCOCCCN(CC(=O)c1c(C)c(C(=O)OCC)n(CC)c1C)C(=O)c1cccc(C(F)(F)F)c1
  -8.2 | -8.5
6. Cc1ccc(CN2CCN(Cc3ccc(F)cc3F)CC2CCO)o1 (stereo unspecified)
  -2.2 | -0.2

This part in full, previewed entries included:
Value order – NPYLR7 agonist max-min | NPYLR7 agonist
1. COc1ccc(Cl)cc1-c1ccc2c(c1)COCC(=O)N2C(C)C
  6.6 | 10.9
2. O=S(=O)(c1ccc(F)cc1)N1CCN(c2cc(Cl)ccc2Cl)CC1
  -5.4 | -5.4
3. Cc1csc2nc(CSc3nc4sc5c(c4c(=O)n3C)CCC5)cc(=O)n12
  8.8 | 1.9
4. CCN(Cc1noc(C)n1)C(=O)CC1CCc2ccccc21 (stereo unspecified)
  -0.1 | 9.0
5. CCOCCCN(CC(=O)c1c(C)c(C(=O)OCC)n(CC)c1C)C(=O)c1cccc(C(F)(F)F)c1
  -8.2 | -8.5
6. Cc1ccc(CN2CCN(Cc3ccc(F)cc3F)CC2CCO)o1 (stereo unspecified)
  -2.2 | -0.2
7. CCOCC(=O)Nc1c(C)nc2ccccn2c1=O
  -0.5 | 1.6
8. CCn1c(C2CCCNC2)nn(CCCn2cnnn2)c1=O (stereo unspecified)
  3.2 | 4.6
9. O=C(COc1ccc(C2SCCCS2)cc1)NCc1nnc2ccccn12
  9.0 | 2.2
10. CCOC(=NCCCN(C)C)NC(=O)c1ccc(C)cc1
  4.0 | -3.3
11. Cc1nc(-c2cccc(C(=O)NCCC3CCCN(C)C3)c2)no1 (stereo unspecified)
  5.3 | 8.6
12. O=[N+]([O-])c1ccc(C=NC2=NN(c3ccccc3)CC2)cc1
  -9.8 | -8.4
13. Cc1ccc(S(=O)(=O)NCCC(=O)Oc2cc(C)cc3oc(=O)cc(-c4ccccc4)c23)cc1
  1.0 | -0.1
14. CC(=O)NC(Cc1ccccc1F)C(=O)N1CCOC(Cc2ccccc2)C1 (stereo unspecified)
  40.1 | 29.7
15. O=C(O)[C@H]1C[C@]2(CCCCNC2=O)N(S(=O)(=O)c2cccs2)[C@H]1c1ccccc1
  6.5 | 2.0
16. O=[N+]([O-])C1=C(N2CCOCC2)CS(=O)(=O)C1
  -18.1 | -12.7
17. CCOc1ccnc(NCCc2nccs2)n1
  -6.2 | -2.0
18. CNS(=O)(=O)c1ccc(C)c(NC(=O)C(C)Oc2cccc(C(C)(C)C)c2)c1 (stereo unspecified)
  0.0 | 2.1
19. CC(C)(C)c1cc(CN(Cc2cccnc2)Cc2ccc3c(c2)OCO3)[nH]n1
  0.1 | 4.1
20. CCOC(=O)N1CCN(C(=O)Nc2ccc(C)cc2)CC1
  -8.4 | -15.9
21. CCCSc1nc2c(c(=O)n(C)c(=O)n2C)n1Cc1ccccc1
  -1.0 | 1.0
22. Cc1nc(N)sc1-c1n[nH]c(=S)n1C
  -2.8&3.9 | -5.3&5.4
23. CC(C)(C)c1ccc(C(=O)Nc2cc(C(=O)Nc3ccc(Cl)cc3)ccc2N2CC3CC(C2)c2cccc(=O)n2C3)cc1 (stereo unspecified)
  -2.7 | -7.1
24. CCC(=O)N(Cc1ccco1)Cc1cc(Cl)ccc1OCc1nc(CO)cs1
  17.3 | 4.2
25. Cc1nn(CCCC(=O)O)c(C)c1[N+](=O)[O-]
  1.6 | 2.2
26. OC(CCl)CN1CC[N+]2(CC1)CC[N+]1(CCN(CC(O)CCl)CC1)CC2 (stereo unspecified)
  -19.6 | -11.5
27. CC(C)CNC(=O)NC(=O)C1CCCCC1
  -2.5 | -1.3
28. CC1CN(S(=O)(=O)c2cc3c4c(c2)C(C)C(=O)N4CCC3)CC(C)O1 (stereo unspecified)
  10.9 | 16.6
29. COC(=O)CCCNC(=O)c1ccc2nc(-c3cccc(OC)c3)oc2c1
  0.3 | 2.7
30. C=CCN1N=C(C)Cn2c1nc1c2c(=O)n(CC=CC)c(=O)n1C
  0.2 | -1.7
31. O=S(=O)(OCC1CCCO1)c1ccc(Cl)cc1 (stereo unspecified)
  2.1 | 3.6
32. COc1cccc(-c2cc(C(=O)N3CCC(C(N)=O)CC3)n(-c3cccc([N+](=O)[O-])c3)n2)c1
  -0.9 | -2.0
33. COc1cc(NC(=O)CN2C[C@H]3C[C@H](O)[C@@H](O)C[C@H]3C2)cc(OC)c1
  6.4 | 8.8
34. COc1ccccc1S(=O)(=O)N1CCCc2cc(C(=O)O)ccc21
  3.0 | 3.4
35. COc1ccc(C)cc1Nc1nc2c(S(=O)(=O)c3ccc(Cl)cc3)nnn2c2ccsc12
  -14.9 | -8.2
36. CCOC(=O)C1(CCCc2ccccc2)CCN(C(=O)c2ccc(C(C)=O)s2)CC1
  -13.4 | -8.3
37. CCOC(=O)c1ccc(CNC(=O)C(CCSC)NC(=O)c2ccccc2)o1 (stereo unspecified)
  10.7 | 12.9
38. COc1cc(F)ccc1-c1ccccc1NC(=O)CN
  -1.7 | -0.2
39. CC1=NOC(C)(C(=O)N2CCCn3cncc3C2)C1 (stereo unspecified)
  -1.8 | 0.4
40. CC(C)S(=O)(=O)c1ncc(CN2CCCCO2)n1Cc1ccccc1F
  -7.3 | -2.8
41. Cn1c(NC(=O)c2ccco2)c(-c2cccs2)c(=O)c2ccccc21
  -2.7 | -0.7
42. COc1ccc(C(=O)Nc2cc(=O)n(C)c(=O)n2C)cc1
  10.9 | 8.9
43. CC1(C(=O)O)CCCN1C(=O)c1cccc(F)c1 (stereo unspecified)
  -6.3 | -2.8
44. Cc1noc(C)c1C(=O)Nc1nc2cc(C(C)(C)C)ccc2o1
  4.8 | 7.8
45. O=C1Nc2ccc(S(=O)(=O)NC3CCCC3)cc2C1=O
  1.7 | 3.8
46. CC(C)OCCCNC(=O)CSc1nc2ccccc2c(=O)n1Cc1ccc(Cl)cc1
  0.5 | -0.4
47. CC(C(=O)NC(=O)NC(C)(C)C)N1CCC(N2CCCCC2)CC1 (stereo unspecified)
  13.1 | 15.4
48. CC(C)c1ncc(C(=O)N2CCCC(Nc3ccc4c(c3)OCO4)C2)c(=O)[nH]1 (stereo unspecified)
  4.6 | 5.9
49. CNS(=O)(=O)c1ccc(CCc2nc(CCc3ccccc3)n[nH]2)cc1
  -0.9 | -0.7
50. O=C(O)CN1C(=O)/C(=C\c2cccc3ccccc23)SC1=S
  -8.3 | -3.8
51. C=CCn1c(SC2CCCC2=O)nnc1-c1ccc(Cl)cc1 (stereo unspecified)
  -0.7 | 2.9
52. O=C(CCC1CCCN(C(=O)Cn2cncn2)C1)N1CCN(Cc2ccccc2)CC1 (stereo unspecified)
  5.6 | 5.2
53. Cc1ccc2c(c1)NC(=O)c1cc(NS(=O)(=O)C3CCCCC3)ccc1O2
  -2.0 | -1.0
54. COc1ccccc1Oc1ncccc1CNC(=O)c1ccc(C)n(C)c1=O
  -2.2 | 4.4
55. CCC(C)N(Cc1ccc(C)cc1)Cc1ncnn1CC (stereo unspecified)
  2.4 | 3.8
56. CN(C)CCOc1ccc(/C(=C(/CCCl)c2ccccc2)c2ccccc2)cc1
  -9.3 | -7.1
57. C=CCN(Cc1ccc(Cl)s1)C(=O)C1CCCN(C(=O)N2CCCC2)C1 (stereo unspecified)
  0.3 | -4.5
58. Cc1nn(C)c2nc(C(C)C)cc(C(=O)N3CCN(Cc4cccc5ccccc45)CC3)c12
  13.0 | 9.3
59. CCNC(=O)CN1CCC(OCCC(C)C)C1 (stereo unspecified)
  -3.4 | 0.8
60. CC(C)=CCC/C(C)=C/C(=O)NCCN(C(C)C)C(C)C
  -11.3 | -7.7

Profiles as entered above. Values in the order: NPYLR7 agonist max-min	NPYLR7 agonist
C=CCn1c(SC2CCCC2=O)nnc1-c1ccc(Cl)cc1 (stereo unspecified) in the list: -0.7	2.9
CCNC(=O)CN1CCC(OCCC(C)C)C1 (stereo unspecified) in the list: -3.4	0.8

Next section.
Value order – NPYLR7 agonist max-min | NPYLR7 agonist
61. CC(C)c1noc(CS(=O)CC(=O)NC(C)c2ccccc2)n1 (stereo unspecified)
  9.8 | 9.8
62. CCOC(=O)N1CCN(C(c2ccc(Cl)c(Cl)c2)C2Sc3nc(CC)nn3C2=O)CC1 (stereo unspecified)
  -7.6 | -4.7
63. COCCOc1nc(-c2cccc(OC)c2)n(-c2cccc(NC(=O)c3cccc(OC)c3)c2)n1
  8.6 | 3.5
64. C=CCN1CCN(c2nc3ccccc3nc2C#N)CC1
  -17.4 | -14.0
65. COc1ccc(N(C)S(=O)(=O)c2ccc(OC)c(N3CCN(C(=O)c4cc(F)ccc4F)CC3)c2)cc1
  2.9 | 5.2
66. O=C(NCCOCCO)c1c(O)nc2sccn2c1=O
  7.7 | -2.1
67. CCOc1ccccc1N=Nc1c(-c2ccccc2)[nH]n(-c2nc(-c3ccc(OC)cc3)cs2)c1=O
  14.8 | 4.8
68. CN=c1scc(-c2ccc(C)c(C)c2)n1N=Cc1ccc(O)c(O)c1O
  32.2 | 5.6
69. COc1cccc(C(=O)Nc2ccc(-c3c(-c4ccccc4F)[nH]n(-c4cccc(C)c4)c3=O)cc2)c1
  -5.9 | -12.9
70. COc1ccc(NC(=O)c2ccc3nc(C)c(N(C)C(=O)Nc4ccc(C(C)=O)cc4)n3c2)cc1OC
  16.4 | 18.0
71. Cc1ccc(C)c(Cn2nc(-c3ccco3)c3sc(C)nc3c2=O)c1
  -0.5 | 2.9
72. Cc1ccc(C(=O)NNS(=O)(=O)c2ccccc2[N+](=O)[O-])cc1
  4.6 | 4.1
73. Cn1c(NNC(=O)c2ccc(-c3ccccc3)cc2)cc(=O)n(C)c1=O
  2.7 | 3.5
74. Cc1ccccc1CCN1CCCC(CN(C)C(=O)Nc2ccccc2)C1 (stereo unspecified)
  4.3 | 7.8
75. COc1ccc(-n2nnc(S(=O)(=O)c3ccc(C)cc3)c2C)cc1Cl
  -2.8 | -2.8
76. COc1ccc(CNc2nnc(SCC(=O)NC(C)C(C)C)s2)cc1 (stereo unspecified)
  6.3 | 1.2
77. CCOc1cc([N+](=O)[O-])c(C(=O)Nc2nccs2)cc1OC
  9.0 | 9.7
78. CCCN1CCC(Cc2noc(-c3ncccc3C)n2)CC1
  2.4 | 2.3
79. COc1cc(Cl)cc2cc(C(=O)NCc3cccnc3N(C)C)oc12
  14.5 | 24.3
80. O=C(Nc1ccc(-c2nc3ncccc3o2)c(Cl)c1)C1CCC1
  -0.1 | -0.3
81. O=C1C2C3C=CC(C3)C2C(=O)N1CCCO (stereo unspecified)
  5.7 | 6.5
82. CN(Cc1cccc(C#N)c1)Cn1ncc(Br)c(Br)c1=O
  3.1 | 4.4
83. CCOC(=O)C1C(=O)C=C(c2ccc(OC)cc2)CC1c1ccccc1OCC (stereo unspecified)
  5.6 | 0.9
84. Cc1ccc2oc(C(=O)N(C)CCc3noc(C4CC4)n3)cc2c1
  10.3 | 12.9
85. CCCN(CC(=O)N(CCc1c[nH]c2ccccc12)Cc1ccccc1OC)C(=O)c1ccccc1C
  11.0 | -1.1
86. CCOC(=O)C1CCCN(c2nc(CC(C)C)nc3sc4c(c23)CCCCC4)C1 (stereo unspecified)
  -1.3 | -0.4
87. COc1ccc(S(=O)(=O)Nc2ccc3sc4ccc(Cl)cc4c(=O)c3c2)cc1-n1cnnn1
  0.9 | 5.3
88. CSc1ccc(CN2CCN(Cc3ccccc3F)C(CCO)C2)cc1 (stereo unspecified)
  12.7 | 19.2
89. O=C(CCN1CCNCC1)N1CCC2(CCNCC2)CC1
  1.9 | 1.2
90. COc1nc(-c2ccccc2C)n(-c2ccc(NC(=O)c3ccc(Cl)cc3)cc2)n1
  9.3 | 10.8
91. Cc1cnc(C(=O)N2CCCN(CC3CC3)C(C(C)C)C2)cn1 (stereo unspecified)
  5.0 | 16.2
92. COc1ccc(CN(C)S(=O)(=O)c2cccc(Br)c2)c(OC)c1
  -1.3 | -0.3
93. Cc1ccc(C)c(NC(=O)C(C)Sc2ccc3c(c2)NC(=O)CO3)c1 (stereo unspecified)
  -1.6 | 1.8
94. O=C(CSc1ccc(-c2ccccc2)nn1)NC1CCCC1
  -2.2 | -0.9
95. CO/N=C(/C(=O)NCCNc1cccc2ccccc12)c1csc(NC=O)n1
  -30.7 | -21.7
96. CCCC(=O)N1CCS(=O)CC1
  1.7 | 3.2
97. CC(=O)N1CCC(N2CCCC(Nc3ccccc3)C2)CC1 (stereo unspecified)
  -3.6 | -0.5
98. CNCCN1C(=O)C(C)SC1c1ccccc1C (stereo unspecified)
  -7.6 | -1.6
99. Cc1cccn2c(CNCCc3ccccn3)c(C(=O)N3CCOCC3)nc12
  -12.9 | -12.1
100. CC(C)N=c1ccccn1-c1ccc(S(=O)(=O)N(C)C)cc1C(=O)O
  1.3 | 8.3
101. O=C(CCc1ccccc1)N1CCCC(OCc2ccc(F)cc2)C1 (stereo unspecified)
  2.1 | 2.1
102. O=C(c1cscn1)N1CCCC(CO)(Cc2cccc(Cl)c2)C1 (stereo unspecified)
  -5.3&6.8 | -1.8&7.2
103. CC1(C(=O)NS(=O)(=O)c2cccc(C#N)c2)CCN1C(=O)CCC1CCCC1 (stereo unspecified)
  3.4 | 3.4
104. Cc1ccccc1C1SC(C)C(=O)N1CCN1CCN(C(=O)Nc2ccc(C(F)(F)F)cc2)CC1 (stereo unspecified)
  2.8 | -0.4
105. O=c1sc2ccccc2n1Cc1nnc(-c2ccccc2Cl)o1
  1.6 | 3.1
